Assay outcomes deposited in PubChem BioAssay by National Center for Advancing Translational Sciences (NCATS).
TSHR agonist: activates the human thyroid stimulating hormone receptor. P16473. HEK293-CNG-TSHR cells (CNG channel as cAMP sensor), membrane potential dye, cAMP. Potency, µM (titrated, usually from 57.1 µM), for inactives: at the highest dose activation, actives largely listed as activators. 0.48% of 73,000 active. AID 926; active = well fitted activation curve of enough size with the parental cells flat; inconclusive = any curve in the parental cells; inactive = parental cells flat and receptor cells flat or falling; also: potency is read from the fitted curve at half-maximal effect; % of control where 0% means no effect; weak receptor curves with flat parental cells got no call and are not listed
Target sequence (P16473 whole entry, looked up): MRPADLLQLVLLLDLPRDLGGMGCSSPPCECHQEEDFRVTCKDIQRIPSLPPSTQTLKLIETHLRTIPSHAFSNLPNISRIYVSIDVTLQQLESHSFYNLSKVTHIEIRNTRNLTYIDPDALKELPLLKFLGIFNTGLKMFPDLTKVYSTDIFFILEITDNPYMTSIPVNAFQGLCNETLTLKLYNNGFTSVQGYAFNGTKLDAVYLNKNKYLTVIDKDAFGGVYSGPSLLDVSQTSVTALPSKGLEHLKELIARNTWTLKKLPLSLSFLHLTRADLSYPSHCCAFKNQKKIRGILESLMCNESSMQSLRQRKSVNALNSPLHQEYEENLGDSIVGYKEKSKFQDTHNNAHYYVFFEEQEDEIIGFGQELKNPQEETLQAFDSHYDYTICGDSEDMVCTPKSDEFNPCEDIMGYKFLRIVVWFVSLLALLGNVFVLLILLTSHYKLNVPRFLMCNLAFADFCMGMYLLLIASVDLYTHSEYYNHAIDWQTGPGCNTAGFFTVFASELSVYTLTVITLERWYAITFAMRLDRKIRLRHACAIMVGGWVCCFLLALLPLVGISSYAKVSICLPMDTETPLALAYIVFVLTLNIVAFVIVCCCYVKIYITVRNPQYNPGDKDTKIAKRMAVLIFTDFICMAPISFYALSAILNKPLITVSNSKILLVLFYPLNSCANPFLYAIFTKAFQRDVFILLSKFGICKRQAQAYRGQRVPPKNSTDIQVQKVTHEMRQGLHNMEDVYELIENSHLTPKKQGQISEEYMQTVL
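cAMP rise detected as CNG-channel membrane depolarization by fluorescent dye (emission 590 nm), 30 min after compound, following 60 min dye loading containing 100 uM RO 20-1724 at room temperature. Cells: TSHR/CNG HEK 293, with parental CNG HEK 293 as control.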
AID923: qHTS Assay for Allosteric/Competitive Inhibitors of Caspase-1: Spectroscopic Profiling in AFC Spectral Region; compound fluorescence, AFC spectral region (405/520 nm); almost no hit is shown here; Potency, µM (top dose mostly 57.5 µM), for the others: at the highest dose fluorescence increase, hits mostly activators; 1.1% of 75,000 active; active = well fitted activation curve with a large enough effect; inconclusive = small, poorly fitted or top-dose-only effect;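 also: potency is read from the fitted curve at half-maximal effect; 0% is about no effect; scaled to a free AFC standard on each plate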
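Titrations up to 57 uM read every 20 sec for 3 min (405/520 nm) with 50 nM caspase 1 and 5 uM Ac-WEHD-AFC, pH 7.5 HEPES buffer. Fluorescence-vs-time intercept gave baseline, scaled against on-plate AFC standard.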
Resorufin fluor: resorufin region autofluorescence; Compound fluorescence, resorufin region 547/598 nm, buffer; hits give high values; max dye-equivalent concentration, M; 0.04% of 59,000 active; AID 588; active = above 10 nM dye equivalent; inconclusive = 1 to 10 nM; inactive = 1 nM or less; a few of its hits are not listed in these tables; also: highest value over a series up to 38 µM
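Intrinsic fluorescence profiled in the resorufin window (ex 547 nm, em 598 nm) after 15 min at room temperature in pH 8.0 Tris buffer (100 mM); responses normalized against a six-point resorufin standard series as dye-equivalent concentration.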
A647 autofl: compound fluoresces in the A647 spectral region. Compound fluorescence, A647 channel (570/671 nm), Tris buffer. max dye-equivalent concentration, M. 59,000 tested, under 10 active. AID 592; active means above 1 µM dye equivalent; inconclusive means 0.1 to 1 µM; inactive means 0.1 µM or less;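 also: values scaled relative to a standard on each plate; highest value over a series up to 38 µM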
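Compounds pinned into 100 mM Tris pH 8.0, 15 min at room temperature, then read with 570 nm excitation/671 nm emission filters. Fluorescence normalized to an on-plate six-point Alexa 647 standard curve, giving dye-equivalent concentration per compound concentration.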
A488 autofl: A488 region autofluorescence; AID 591; 0.1% of 59,000 active; compound autofluorescence, A488 spectral region, dye equivalency; hits give high values; max dye equivalency, M; active = above 10 nM dye equivalent; inconclusive = 1 to 10 nM; inactive = 1 nM or less; about half of its hits are not listed in these tables;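 also: highest value over a series up to 38 µM; compound alone in buffer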
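Intrinsic compound fluorescence is measured in 100 mM Tris buffer at pH 8.0 following 15 min incubation at room temperature. Intensities at 480 nm excitation/540 nm emission are calibrated to an on-plate A488 concentration series, giving dye-equivalent concentrations.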
An asterisk follows results filed as active; i = inactive; ? = inconclusive; . = not tested or not shown; & = joins results of further samples; [ ] = dose if it differs, or a comment. Only part of the results is shown; count on the stated rates, not on these rows.

Value order – TSHR agonist, AID923, Resorufin fluor, A647 autofl, A488 autofl
CC1(C)CCC(=O)N[C@H]1CC(=O)C[C@H]1NC(=O)CCC1(C)C
→ -6%[11.4 µM], 1.7%[11.5 µM], i, 1.6e-09, i
CCOc1ccc2nc(NC(=O)C3CCN(S(=O)(=O)c4cnc[nH]4)CC3)sc2c1
→ -1%, 0.0%, ., ., .
COc1ccc(NC(=O)CC(NCCc2ccccc2)C(=O)O)c(OC)c1 (configuration not stated)
→ 11%, 1.4%, i, 1e-09, i
CCCc1[nH]nc2c1C(c1ccc(OC)c(Cn3nc(C)c(Br)c3C)c1)C(C#N)=C(N)O2 (configuration not stated)
→ ?, 3.0%, i, 2.1e-08, i
O=C(c1ccncc1)N1CCC2(CC1)CCN(c1ccccn1)CC2
→ ?, -1.1%, i, 3.4e-08, i
COc1ccc2[nH]c(=O)c(C(c3nnnn3C3CCCCC3)N3CCN(C)CC3)cc2c1 (configuration not stated)
→ 17%, 19%, i, 5.9e-08, i
Cc1ccccc1C(=O)c1cccn1CC(=O)NCC1CCCO1 (configuration not stated)
→ 1%, -1.1%, i, 2e-08, i
CC1=C(C(=O)OCc2ccccc2)C(c2ccc(C(C)(C)C)cc2)NC(=O)N1CCCCCC(=O)O (configuration not stated)
→ ?, 16%, ., ., .
O=C(NCCSc1ccccc1)c1ccccc1
→ 4%, -1.0%, i, 1.3e-08, i
COc1ccccc1OCC(=O)NC1CCCCCC1
→ 15%, 0.1%, ., ., .
CCN(CC)c1ccc(NC(=O)c2cccc(C)c2OC)c(C)c1
→ -8%, -2.2%, i, 2.6e-08, i
CCCc1cc(=O)[nH]c(SCC(=O)Nc2ccc(OC(F)F)cc2)n1
→ 3%, -0.5%, i, 2.3e-09, i
CC(C)=CCC/C(C)=C/CO/N=C1/C[C@@H](O)[C@@H](O)[C@@H]2[C@@H]3C(=O)N(c4cccc(Oc5ccccc5)c4)C(=O)[C@H]3CC[C@@H]12
→ -1%[11.4 µM], 2.9%[11.5 µM], ., ., .
CCCC(=O)Nc1sc2c(c1C#N)CCCC2
→ ., ., i, 8e-08, i
CC(OC(=O)CCc1nc2ccccc2[nH]c1=O)C(=O)c1ccccc1 (configuration not stated)
→ 10%, 1.5%, i, 1.5e-08, i
O=C(Cn1c(=O)sc2ccccc21)N1CCOCC1
→ -2%[11.4 µM], 3.4%, ., ., .
COc1ccc(OC)c(NC(=O)CCN2CCN(c3ccccc3)CC2)c1
→ 0%, -1.7%, i, 4.7e-09, i
CC(C)n1c(CNC(=O)c2ccccc2)nc2ccccc21
→ 3%[11.4 µM], -0.3%, i, 2.7e-09, i
COc1cc(C)nc(SCC(N)=O)n1
→ -1%, -1.0%, i, 1.9e-08, i
CC(C)(C)NC(=O)CN(C(=O)c1ccc(CN2CCOCC2)o1)c1ccc2c(c1)OCCO2
→ -3%, 1.3%, i, 1.4e-08, i
Cc1cccc(N2CCN(C(=O)n3ccnc3)CC2)c1C
→ 2%, 1.0%, i, 1e-09, i
C=C(C)CSc1nc(N)c(C#N)c(-c2ccc(C)cc2)c1C#N
→ -2%, 4.8%, i, 4.1e-08, i
CCN(CC)CCCN1C(=O)C(O)=C(C(=O)c2ccc(C)o2)C1c1ccc(C)o1 (configuration not stated)
→ ., ., i, 1e-09, i
COc1ccc(-c2nc3ccccc3o2)cc1NC(=O)c1ccc(Br)o1
→ ?, 1.8%, ., ., .
O=C(CNCCO)NC12CC3CC(CC(C3)C1)C2
→ 16%, -2.1%, i, 1e-09, i
CCOC(=O)c1ccc(-n2c(C)nc3ccccc3c2=O)cc1
→ 0%, 1.2%, ., ., .
COC(=O)c1nc(NC(=O)C(C)C)n[nH]1
→ 5%, -1.7%, i, 1.7e-08, i
CN(C)CC[C@@H](c1ccccc1)c1ccccn1
→ ?, -2.1%[25.7 µM], i, 3.6e-08&9.8e-09, i
CCOC(=O)c1c(C)nc2c3ccccc3ccn12
→ 17%, 0.9%, i, 1e-09, i
COc1ccc(C2=CC(=O)OC3(CCCCC3)O2)cc1
→ 19%, 0.5%, i, 1e-09, i
C=CCN1C2CCCC1CC(NC(=O)Nc1cccc(C(C)=O)c1)C2 (configuration not stated)
→ 0%, 0.5%, i, 7.9e-09, i
COc1ccc(C(CNC(=O)c2cccc(N(C)C)c2)N2CCCC2)cc1 (configuration not stated)
→ -1%, -1.4%, i, 1e-09, i
O=C1C2C3CCCC3=C3CCCC3C2C(=O)N1c1ccc(F)cc1 (configuration not stated)
→ ?, 8.6%, i, 2e-08, i
NC(=O)C1CCN(CC(=O)Nc2ccccn2)CC1
→ 4%, -1.3%, i, 2.2e-08, i
O=C(NC(NCc1ccccn1)(C(F)(F)F)C(F)(F)F)c1ccco1
→ -1%, 2.0%, i, 1e-09, i
Cc1c(CCC#N)c(N2CCCCC2)n2c(nc3ccccc32)c1C#N
→ ., ., i, 1.2e-09, i
CCCc1c(O)nc(SCC(=O)NCCc2ccc(OC)c(OC)c2)[nH]c1=O
→ -1%, 1.4%, i, 1e-09, i
O=C(O)c1cccc(CN2CCCCC2)c1
→ 1%[11.4 µM], -0.9%[11.5 µM], i, 1e-09, i
CCOC(=O)C1CCN(c2c(NCCN3CCN(c4ccccc4)CC3)c(=O)c2=O)CC1
→ 3%, 3.1%, ., ., .
CCC(=O)Nc1cccc(NC(=O)CSc2nnc(-c3ccc(NS(C)(=O)=O)cc3)n2C)c1
→ 3%, -0.7%, i, 1.3e-09, i
CCCCNC(=O)c1ccc2c(c1)N(CC)C(=O)c1ccccc1S2(=O)=O
→ ?, -2.3%, ., ., .
CCOc1ccc(C(=O)Nc2ccc(Cl)cn2)cc1Cl
→ 2%, -1.3%, i, 4e-08, i
COc1ccc(CC(=O)N2CCOCC2)cc1OC
→ 4%, 2.9%, ., ., .
C(=C\c1ccccc1)/CSc1nnc(-c2cccnc2)n1Cc1ccco1
→ ?, 0.5%, i, 8e-09, i
CCNCCNC(=O)c1c(O)c2ccccc2n(CC)c1=O
→ ?, 0.2%, i, 4.4e-08, i
O=S(=O)(c1ccc(OCC(O)CN2CCN(c3ccccc3O)CC2)cc1)N1CCOCC1 (configuration not stated)
→ 5%, -2.2%, i, 8.6e-09, i
CC(C)Cc1nc(N2CCCCC2)c(C#N)c2c1CCC2
→ ., ., i, 2.7e-09, i
CC(=O)Nc1ccc(C(=O)OCCC(C)C)cc1
→ 2%[11.4 µM], 0.4%, ., ., .
N=c1n(Cc2ccccc2)c2ccccc2n1CC(O)c1ccccc1 (configuration not stated)
→ 8%, 3.5%, i, 8.3e-09, i
O=C(NCCc1ccccc1)c1ncn[nH]1
→ 6%, 0.6%, i, 7e-09, i

Additional results
Value order – TSHR agonist, AID923, Resorufin fluor, A647 autofl, A488 autofl
COc1ccc(C2(O)CCN(CC(=O)Nc3nccs3)CC2)c(OC)c1
→ 18%, 0.8%, i, 1.8e-08, i
COc1cccc(S(=O)(=O)Nc2ccc(C(=O)N3CCN(C(=O)c4ccco4)CC3)cc2)c1
→ 9%, 0.1%, i, 1.9e-08, i
O=C(NCCCN1CCCC1=O)Nc1ccc(Cl)cc1
→ 3%, 1.7%, i, 2.1e-08, i
O=C(c1oc(=O)c2ccccc2c1-c1ccccc1)N1CCOCC1
→ 5%, 0.5%, i, 1.6e-08, i
COc1cccc(C2/C(=C(/O)c3ccc(C)cc3)C(=O)C(=O)N2Cc2ccco2)c1 (configuration not stated)
→ ., ., i, 2.2e-08, i
COc1ccc(C(=O)NCc2nnc(SCC(=O)N3CCCCC3)o2)cc1OC
→ 9%, -0.1%, i, 7.5e-09, i
O=C(Cn1ccc2ccccc2c1=O)NCCC(=O)N1CCN(C2CCCCC2)CC1
→ -13%, -1.6%, i, 3.4e-08, i
CC1(C)c2ccccc2N2CC(=O)N(CC(N)=O)C21C (configuration not stated)
→ -16%, -1.0%, ?, 6.9e-09, i
O=C(NCC1CCCO1)c1cc2n(n1)C(C(F)(F)F)CC(c1ccc(F)cc1)N2 (configuration not stated)
→ -10%, 1.1%, i, 4.4e-08, i
Oc1ccc(Cl)cc1/C=N/c1nc2ccccc2[nH]1
→ 0%[11.4 µM], 20%, ., ., .
O=C1CC(N2CCC(O)CC2)C(=O)N1c1ccc(Br)cc1 (configuration not stated)
→ -21%, -0.8%, ., ., .
CCCCOC(=O)CSc1nc2c(c(=O)[nH]c(=O)n2C)n1C/C=C(\C)Cl
→ 9%, -1.2%, i, 1e-09, i
O=C(c1cnn2c(C(F)(F)F)cc(-c3ccc4c(c3)OCO4)nc12)N1CCCCC1
→ ?, 2.1%, i, 3.3e-08, i
O=C(NCc1ccco1)c1ccc(CS(=O)(=O)Cc2ccc(F)cc2)o1
→ 0%, 0.0%, i, 4.9e-09, i
CS(=O)(=O)Nc1cccc(-c2cncnc2-n2ccnc2)c1
→ 4%, 0.4%, i, 3e-08, i
CCN(CCCNC(=O)CC(C(=O)N1CCc2ccccc21)n1ccnc1)c1ccccc1 (configuration not stated)
→ 0%, -2.4%, i, 1e-09, i
Cc1ccc(C)c2[nH]c(=O)c(CCNC(=O)CC(C)C)cc12
→ 20%, -1.2%, ., ., .
O=c1cc(Nc2ccc3c(c2)OCCO3)[nH]c(=O)n1Cc1ccc(F)cc1
→ -3%, -0.1%, i, 1e-09, i
COC(=O)CCN(C)CCC(=O)OC
→ 7%[11.4 µM], 1.8%, i, 3e-08, i
COc1cc(NC(=O)c2nccnc2C(=O)O)cc(OC)c1
→ ?, -0.9%, ., ., .
CC(NS(=O)(=O)c1ccc(Cl)cc1)C(c1cccs1)N1CCN(C)CC1 (configuration not stated)
→ 13%, 1.9%, i, 2.8e-08, i
CCOc1ccc(NC(C)=O)cc1
→ -1%, 4.0%, i, 1e-09, i
COc1ccc(NC(=O)NC(C(F)(F)F)C(F)(F)F)cc1
→ 11%, 2.4%, ., ., .
O=C(COc1ccccc1)Nc1nc(-c2cccs2)cs1
→ ?, 0.0%, i, 1e-09, i
Cc1csc(NC(=O)C2CCCN2C(=O)Oc2ccccc2)n1 (configuration not stated)
→ 2%[11.4 µM], -1.6%, i, 1.6e-09, i
Cc1nn2cnc3sc4c(c3c2nc1=O)CCCC4
→ ., ., i, 1.3e-09, i
O=C(NCCCCNC(=O)C1CCCC1)C1CCCC1
→ 5%, 0.2%, i, 1e-09, i
O=C1C(C=NCc2ccccn2)=C(O)c2ccccc21
→ -5%, 1.3%, i, 3.4e-09, i
COc1cc(C)c(C(N)=O)c(OC)n1
→ 5%, -0.9%, i, 1.8e-08, i
Cc1onc(-c2ccccc2Cl)c1C(=O)Nc1ccc(-c2nnc3n2CCCCC3)cc1
→ 1%, 0.0%, i, 5.2e-08, i
Cc1nnc(SCCCn2c(N3CCCCC3)nc3c2c(=O)[nH]c(=O)n3C)s1
→ 12%, -0.5%, i, 3e-08, i
CCCCS(=O)(=O)Nc1ccc2ncn(C)c(=O)c2c1
→ 8%, 1.4%, i, 7.7e-08, i
Nc1n[nH]c(-c2ccccc2)c1-c1ccccc1
→ -7%, 1.2%, ., ., .
CN(C)C(CNc1nnnn1-c1ccccc1)c1ccco1 (configuration not stated)
→ -4%[11.4 µM], 3.7%, i, 2.1e-08, i
CCN(CC)CCNC(=O)CCc1nn(C)c(=O)c2ccccc12
→ 4%, 0.1%, i, 1.8e-08, i
